# Sa helicase inh: blocks Staphylococcus aureus DNA helicase; purified S. aureus helicase, fluorescence unwinding assay; about half of the hits fall short of the stated cut; inhibition, %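 (tested at about 80 µM)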; 120,000 tested, 0.05% active;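 active = both duplicates at 50% or more, or one of them with a favoured structure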;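 note: 0% = mean of negative control wells and 100% = mean of positive control wells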
# MgrA DNA FP: modulators of Staphylococcus aureus MgrA DNA binding | fluorescence polarization | inhibition, %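 (about 10 µg/mL by stock and volumes)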 | 84,000 tested, 0.13% active;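 active = above 50% in either of two replicates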;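 note: 0% = protein plus DNA without compound and 100% = DNA alone without protein; higher means less MgrA bound to DNA so lower polarization; one replicate is shown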
# The depositor's hits bear a star; . = not tested or not shown; & = joins results of further samples. An excerpt; rates above refer to the full screens.
molecule	Sa helicase inh	MgrA DNA FP
COc1ccc(N2CCC(CNS(=O)(=O)c3cccc(Cl)c3)C2)cc1 (stereo not drawn)	10.0	0.2
O=C1CC2CCC(CN1)N2CC(=O)Nc1ccccc1C(F)(F)F (stereo not drawn)	8.0	-0.3
O=C(C1CCN(C2CC(=O)N(c3ccc4c(c3)OCO4)C2=O)CC1)N1CCCCCC1 (stereo not drawn)	2.0	-0.8
c1nc(NCc2ccc3c(c2)OCO3)c2ccsc2n1	17.0	.
O=C(Nc1nc2c(ccc3ccccc32)o1)c1cccs1	.	0.0
NC(=O)c1cccc2cccc(Sc3ccccc3)c12	.	-1.9
Cc1ccc(-c2nn(CCC(=O)Nc3cccc(C(F)(F)F)c3)c(=O)c3ccccc23)cc1	3.0	0.7
CC(C)C/C=C1\CC/C(=C\c2ccc(N(C)C)cc2)C1=O	-97.0	.
O=C(CSc1n[nH]c(=O)n1Cc1ccco1)Nc1ccccc1Cl	-37.0	.
COC(=O)c1ccccc1NC(=O)c1ccc2c(Cl)c3c(nc2c1)CCC3	3.0	.
CCC(=O)Nc1sccc1C(N)=O	1.0	.
Fc1cccc(F)c1C=Nc1ccc2c(c1)OCCO2	-13.0	.
CC(C)(C)CC(=O)Nc1ccc2c(c1)OCCO2	6.0	0.0
Clc1ccccc1/C=N/c1nc2ccccc2n1CCN1CCCCC1	-4.0	-0.1
CC1=NN(C(C#N)c2ccccc2)C(C)(C)C1 (stereo not drawn)	20.0	3.1
CCn1cc(/C=C(\NC(=O)c2ccccc2F)C(=O)N2CCN(C)CC2)c2ccccc21	14.0	.
Cc1ccc(C)c(C(=O)O)c1	-4.0	.
O=C(c1ccco1)N1CCN(c2ncnc3nc[nH]c23)CC1	11.0	2.8
Cc1ccccc1NC(=O)CCS(=O)(=O)c1cccc2nonc12	8.0	.
CCCC/C(C)=N/n1c(-c2ccco2)csc1=NC	-22.0	.
C=Cn1c(C(=O)O)cc(CC)c1-c1ccccc1	0.0	1.5
COc1cccc(N2C(=O)NC(=O)/C(=C\c3ccc(N(C)C)c([N+](=O)[O-])c3)C2=O)c1	.	24.1
O=S(=O)(c1cccc(-c2cn3cccnc3n2)c1)N1CCCC1	19.0	.
COC(=O)C(C)(N)Cc1c[nH]c2ccccc12 (stereo not drawn)	.	2.6
Cc1ccc(NC(=O)COC(=O)c2cnc3sccn3c2=O)cc1C	14.0	.
CSc1nc2ccccc2n1CC(=O)N1CCCCC1	18.0	.
CCOC(=O)C1C2C=CC3(CN(CC(C)C)C(=O)C13)O2 (stereo not drawn)	9.0	-1.6
CCOc1ccccc1-n1nnc(C(N)=O)c1C	1.0	0.0
O=C(O)c1ccc(-c2ccc(C(=O)O)s2)s1	-3.0	5.0
CCc1c(C)nc(SCC(=O)Nc2ccc3c(c2)OCCO3)[nH]c1=O	-1.0	1.1

# Ordered by heavy-atom count (ascending): seven of the compounds above
molecule	Sa helicase inh	MgrA DNA FP
CCC(=O)Nc1sccc1C(N)=O	1.0	.
O=C(O)c1ccc(-c2ccc(C(=O)O)s2)s1	-3.0	5.0
C=Cn1c(C(=O)O)cc(CC)c1-c1ccccc1	0.0	1.5
NC(=O)c1cccc2cccc(Sc3ccccc3)c12	.	-1.9
Cc1ccccc1NC(=O)CCS(=O)(=O)c1cccc2nonc12	8.0	.
COc1ccc(N2CCC(CNS(=O)(=O)c3cccc(Cl)c3)C2)cc1 (stereo not drawn)	10.0	0.2
CCn1cc(/C=C(\NC(=O)c2ccccc2F)C(=O)N2CCN(C)CC2)c2ccccc21	14.0	.

# Continuation:
molecule	Sa helicase inh	MgrA DNA FP
CCC1CN(C(=O)n2ccnc2)c2ccccc2O1 (stereo not drawn)	-1.0	.
O=C(Cn1c(=O)cnc2ccccc21)NCC(F)(F)F	12.0	.
NC(=O)Cn1nc(-c2ccc(Cl)cc2)ccc1=O	14.0	.
COC(=O)C(NS(=O)(=O)c1ccc(F)cc1)c1ccccc1 (stereo not drawn)	13.0	0.6
O=C(Nc1nc2ccc(Cl)cc2s1)C1COc2ccccc2O1 (stereo not drawn)	-7.0	.
COc1ccc(-c2c(C)oc3cc(OCC(O)CN4CCC(C(N)=O)CC4)ccc3c2=O)cc1 (stereo not drawn)	3.0	.
CNc1nc(-c2ccccn2)nc(C)c1Cl	.	-2.1
CCOC(=O)c1c(NC(=O)COc2ccccc2)sc2c1CCCC2	.	0.0
COC(=O)[C@@H]1CC(O)CN1S(=O)(=O)c1ccc(C)cc1 (stereo partly drawn)	1.0	.
Fc1cc(F)cc(NC(=S)NCCN(C2CCCCC2)C2CCCC2)c1	9.0	4.1
Cc1oc2c(CN3CCCCC3)c(O)ccc2c(=O)c1Oc1ccc(Cl)cc1	-14.0	.
CCC(NC(=O)c1ccccc1NC(=O)C(C)(C)C)C(=O)N1CCCC1 (stereo not drawn)	-8.0	.
Cc1c(N=c2c(=O)c3ccccc3c2=O)c(=O)n(-c2ccccc2)n1C	-10.0	1.9
O=C(NCC(=O)c1ccccc1)/C(=C/c1cccs1)c1ccccc1	.	-0.1
OC(C#CCC(O)c1ccccc1)c1ccccc1 (stereo not drawn)	7.0	.
O=C(CN1C(=O)c2cccnc2Oc2ccc(Cl)cc21)NCc1ccccc1	5.0	.
CCOC(=O)C1=C(N)N2C(=O)C(C)SC2=C(C(=O)OC)C1c1cccc(OC)c1 (stereo not drawn)	12.0	2.6
Oc1ccc(N=Cc2ccc[nH]2)cc1N=Cc1ccc[nH]1	-142.0	9.6
O=C(O)CCC(=O)N1CC(=O)Nc2ccccc21	-6.0	-6.8
O=C(Cc1ccccc1)NN1C(=O)C2C3C=CC(C3)C2C1=O (stereo not drawn)	-1.0	-1.7
NC(N)=NC(N)=Nc1ccccc1C(F)(F)F	7.0	-1.7&-2.1
O=C(OCc1ccc(Br)cc1)c1ccco1	7.0	0.8
CN1C2CCC1CC(NC(=O)CSc1nnc(N)s1)C2 (stereo not drawn)	.	-0.6
O=C(O)c1ccc2c(c1)ncn2C1CCCCC1	1.0	-1.9
C[C@H](NC(=O)c1ccco1)C(=O)Nc1ccc(S(=O)(=O)N2CCCC2)cc1	-13.0	.
COc1cc(-c2nc3ccccn3c2/N=C/c2cccc(Cl)c2Cl)ccc1O	-7.0	-0.2
Cc1ccc(NC(=S)Nc2ccc(C)cc2)cc1	.	5.0
Cc1cc(=O)oc2ccc(O)cc12	9.0	.
O=C(OCC1CCCO1)c1cc(F)c(F)c(F)c1F (stereo not drawn)	-9.0	2.6
O=[N+]([O-])c1cc(C(F)(F)F)ccc1Oc1ccc(-c2nnco2)cc1	.	-3.1

# One compound at a time, as listed above:
# CC(C)(C)CC(=O)Nc1ccc2c(c1)OCCO2 across the screens: Sa helicase inh: 6.0; MgrA DNA FP: 0.0
# NC(=O)Cn1nc(-c2ccc(Cl)cc2)ccc1=O across the screens: Sa helicase inh: 14.0; MgrA DNA FP: .

# Next records.
molecule	Sa helicase inh	MgrA DNA FP
COc1ccccc1N=Cc1ccsc1S	-4.0	5.9
NC(N)=NC(N)=Nc1cc(Cl)cc(Cl)c1	.	-1.5
Cc1c(C(=O)OC(C)C(=O)Nc2ccc(S(N)(=O)=O)cc2)sc2nc3n(c(=O)c12)CCCCC3 (stereo not drawn)	-8.0	.
O=C(OCC(=O)N1CCN(c2ccccc2)CC1)c1ccc2[nH]c3c(c2c1)CCCC3	-6.0	.
CSc1ncc(C(=O)N2CCCc3ccccc32)c(C)n1	0.0	-0.3
CCOC(=O)c1cc(-c2cccnc2)nc2c1c(C)nn2C	-13.0	.
Cc1ccc(OS(=O)(=O)c2ccc(Cl)cc2)c(Br)c1	.	-0.6
CCOc1ccc(NC(=O)N(CCN2CCOCC2)Cc2ccc3c(c2)CCCN3CC)cc1	8.0	-1.0
Cc1ccc(NC2=NC(c3ccccc3)n3c(nc(C)cc3=O)N2)cc1 (stereo not drawn)	11.0	-1.2
CSc1sc(C(=O)O)c(-c2cccs2)c1C#N	.	-1.1
c1ccc(CCNc2ncnc3nc[nH]c23)cc1	19.0	.
NS(=O)(=O)c1cc(C(=O)O)c(NCc2ccco2)cc1Cl	.	3.4&6.2
O=C(CSc1cccc[n+]1[O-])NC1CCCCCC1	-7.0	3.6
O=C(O)[C@H](Cc1ccccc1)N1C(=O)c2ccncc2C1=O	12.0	2.4
COC(=O)c1[nH]c(COc2ncnc3ccccc23)c(C(=O)OC)c1C	-19.0	.
OC(CCN1CCCCC1)(c1ccccc1)c1ccccc1	.	-0.5&3.1
N#CCCN(C(=O)Nc1ccccc1)c1ccccc1	-2.0	-1.9
CCC(C(=O)Nc1cccc(Cl)c1)n1nc(-c2ccc(OC)cc2)ccc1=O (stereo not drawn)	12.0	.
CCn1c(SC)nc2ccccc2c1=O	3.0	.
CCOC(=O)c1cnc2c(c(C)nn2CC)c1Cl	.	-0.2
CCOC(=O)C1=C(C)N=c2s/c(=C\c3cc(Br)ccc3OC(C)=O)c(=O)n2C1c1cccs1 (stereo not drawn)	.	-2.4
CCC(=O)N(c1nnc(SCc2ncc(-c3ccccc3)o2)s1)C1CC1	-5.0	.
c1cc2c(cc1-c1nc3sc(-c4ccc5c(c4)OCO5)nc3s1)OCO2	-53.0	.
N#CC(C#N)=CNc1cc(C(F)(F)F)ccc1N1CCCCC1	.	0.4
CCCCSc1nnc2c(n1)OC(c1cccs1)Nc1ccccc1-2 (stereo not drawn)	.	-0.8
Nn1c(SCC(=O)O)nnc1-c1ccncc1	-10.0	.
CC(=O)Nc1ccc(C(=O)OCC(=O)NCc2ccccc2Cl)cc1	-14.0	2.5
COc1ccccc1Nc1ccc2ccccc2c1	6.0	.
NC(=O)CCS(=O)(=O)CCN1CCN(Cc2c(F)cccc2Cl)CC1	-5.0	.
O=C(c1cccs1)N1CCCn2c1nc1ccccc12	4.0	-2.2
CCCN(Cc1nc2cc(Cl)ccc2c(=O)[nH]1)C(=S)NC	-8.0	.
O=C(OCCN1C(=O)c2cccc3c(N4CCOCC4)ccc(c23)C1=O)c1ccccc1Br	.	-0.5
Cc1cc(C)c2c(n1)SCC(=O)N2CC(=O)NCC1CCCO1 (stereo not drawn)	10.0	.
Cn1c(SCc2ccccc2Cl)nnc1-c1oc2nc(-c3ccccc3)cc(-c3ccco3)c2c1N	-132.0	.
O=C1CC(Cc2ccccc2)C(=O)N1c1nccs1 (stereo not drawn)	1.0	3.0
CC(C)(C)C(=O)N(Cc1nc(-c2ccccc2)no1)C1CCCCC1	1.0	1.1
CCC(Sc1nc(N)cc(=O)[nH]1)C(=O)Nc1cccc2ccccc12 (stereo not drawn)	-8.0	0.5
O=C(NCc1cccs1)c1c[nH]c2c(F)cccc2c1=O	6.0	-0.9
O=C(O)CCS(=O)(=O)Cc1ccccc1F	6.0	.
COc1cccc(N2C(=O)/C(=C\N3CCCCC3)C(=O)NC2=S)c1	-8.0	-2.5
Cc1cc(C(=O)OCC(=O)Nc2ccccc2C#N)c(C)n1-c1ccc(F)cc1	10.0	.
CN1C(=O)CSc2ccc(NC(=O)N3CCc4ccccc43)cc21	2.0	12.2
CC(C)Sc1nnc(CSc2ncccn2)n1-c1ccc(F)cc1	21.0	.
O=C(CCC1COc2ccccc2O1)Nc1ccccc1Cl (stereo not drawn)	-6.0	1.9
O=C(/C=C\c1ccco1)Oc1cccc2cccnc12	17.0	9.7
CNc1nc2ccccc2o1	1.0	1.6
Cc1cccc(C)c1NC(=O)C1(N(C)C(=O)CSc2nc3ccccc3o2)CCCCC1	13.0	-0.7
C=CCOC(=O)c1ccc2c(c1)C(=O)N(c1ccccc1)C2=O	-1.0	.
CN(c1cccc(Cl)c1)S(=O)(=O)c1cccc(C(=O)NN2CCOCC2)c1	14.0	.
N#Cc1c(-c2ccccc2)n2c(-c3ccccc3)nn(-c3ccccc3)c2nc1=O	.	1.9
CC(C)c1ccc(C(=O)OCC(=O)NCc2ccco2)cc1	-1.0	1.3
CC(=O)Nc1ccc(OCC(O)Cn2ccnc2)cc1 (stereo not drawn)	-15.0	0.9
N#CCCN(CCc1ccccn1)S(=O)(=O)c1ccc2c(c1)CCO2	.	-0.3
COc1ccc(-c2cc(C(=O)N3CCOCC3)c3c(-c4ccc(Cl)cc4)[nH]nc3n2)cc1	39.0	.
CC(=O)Nc1cc(C)ccc1OC(C)(C)C(=O)OC(C)(C)C	.	-1.5
O=C(COC(=O)c1ccc(S(=O)(=O)Nc2ccccc2)cc1)NCC1CCCO1 (stereo not drawn)	-4.0	.
Cc1ccc(NCC(=O)SCc2csc(Nc3ccccc3)n2)cc1	1.0	-4.1
c1ccc2c(c1)nnn2CN1CCCCC1	-5.0	-0.2
Cc1nn(-c2ccccc2)nc1CNC(=O)c1cccs1	.	0.1
Cc1noc2ncnc(SCC(=O)Nc3ccccc3Cl)c12	.	-0.2

# Carrying on:
molecule	Sa helicase inh	MgrA DNA FP
O=C1CCCC2=C1C(c1ccncc1)c1c(nc(SCc3ccccc3)[nH]c1=O)N2 (stereo not drawn)	6.0	.
O=C(O)c1ccccc1NCc1ccc(Cl)cc1	-1.0	4.8
N#C/C(=C\c1ccc(-c2ccccc2Br)o1)C(=O)N1CCOCC1	-17.0	.
CCn1cnc2sc(C(=O)Nc3ccccc3)c(C)c2c1=O	6.0	-3.2
CCCC12CN3CC(CCC)(CN(C1)C31C(=O)Nc3ccccc31)C2=O (stereo not drawn)	-4.0	.
CC(C)Cn1c(NN)nc2ccccc21	12.0	.

# Source: PubChem BioAssay
